# Compound activity: PubChem, several laboratories
# RecA splice inh = inhibitors of M. tuberculosis RecA intein splicing. cell-free RecA intein splicing, fluorescence. inhibition, %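 (about 9 µM by stock and volumes)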. 290,000 compounds, 0.75% hits; in the data active = inhibition above about 30%; inconclusive = no clear call, values can overlap the other calls;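 note: 0% = vehicle wells and 100% = reference inhibitor control wells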
# Target sequence (P9WHJ3 whole entry, looked up, canonical isoform): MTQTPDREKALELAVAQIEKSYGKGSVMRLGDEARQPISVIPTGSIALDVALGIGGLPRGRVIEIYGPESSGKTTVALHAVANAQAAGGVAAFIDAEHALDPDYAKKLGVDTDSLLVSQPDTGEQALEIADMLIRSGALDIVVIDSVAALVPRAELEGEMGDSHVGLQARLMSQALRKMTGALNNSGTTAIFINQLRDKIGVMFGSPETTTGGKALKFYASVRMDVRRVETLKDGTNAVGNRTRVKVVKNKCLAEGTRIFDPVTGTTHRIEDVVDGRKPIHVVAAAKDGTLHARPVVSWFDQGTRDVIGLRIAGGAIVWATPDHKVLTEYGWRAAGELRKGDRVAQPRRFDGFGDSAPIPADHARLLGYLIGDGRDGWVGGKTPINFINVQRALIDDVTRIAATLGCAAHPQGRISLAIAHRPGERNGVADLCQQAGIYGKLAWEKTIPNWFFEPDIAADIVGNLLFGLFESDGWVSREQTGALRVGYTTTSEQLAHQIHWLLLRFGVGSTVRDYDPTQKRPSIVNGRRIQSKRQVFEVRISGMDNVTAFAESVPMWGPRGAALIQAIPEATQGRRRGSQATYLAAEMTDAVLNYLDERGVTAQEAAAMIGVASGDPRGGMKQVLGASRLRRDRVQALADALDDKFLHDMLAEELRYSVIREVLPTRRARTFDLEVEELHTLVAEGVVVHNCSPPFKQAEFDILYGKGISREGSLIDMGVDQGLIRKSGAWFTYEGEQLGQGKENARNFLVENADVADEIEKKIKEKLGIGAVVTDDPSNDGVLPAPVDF
# Mtb betalactam = beta-lactam sensitization of Mtb H37Rv; M. tuberculosis H37Rv growth with meropenem, percent inhibition; hits of this screen are not shown here; inhibition, % at 25 µM; 330,000 compounds, 0.27% hits; AID 434955;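 active = about 74% or more and at least 40 points above the plate without the antibiotic, then above 30% in a dose series; inconclusive = first-round hits that could not be retested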;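 note: growth measured after seven days incubation then overnight dye step; 0% = bacteria only wells and 100% = bacteria with antibiotic; twin plates without the antibiotic show which effects depend on it; some results filed as inactive read as strong as hits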
# YopH inh = inhibitors of Yersinia enterocolitica YopH tyrosine phosphatase; fluorescence Ex485/Em525; inhibition, %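 (about 10 µM by stock and volumes)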; 140,000 compounds, 0.16% hits;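 active = inhibition of 50% or more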;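 note: controls were vehicle for no effect and minimum signal wells for full effect; inactives centre near -20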
# Mtb H37Rv = M. tuberculosis H37Rv growth inhibitors, H37Rv strain (AID 1626) | one-dose inhibition, % at 10 µM; IC50 in µM for titrated hits | M. tuberculosis H37Rv growth inhibition; higher % means a stronger effect | 220,000 compounds, 0.95% hits;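 active = confirmed in a dose series; inconclusive = inhibition above 80% but not taken into the dose series; inactive = below 80% or under 30% at every dose of the series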;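 note: bacteria incubated seven days before Alamar blue readout; 0% = bacteria only wells and 100% = bacteria with antibiotic wells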
# Arbovirus anti = arbovirus infection inhibition; arbovirus infection cell-based antiviral screen; inhibition, % at 10 µM; 200,000 compounds, 0.37% hits; AID 1251;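 active = inhibition from about 30%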;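 note: bluetongue infection of BSR cells; cell survival read as ATP light after 72 h; 0% = infected wells without compound and 100% = uninfected wells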
# Arbovirus anti repeat = second read-out of Arbovirus anti, no call of its own (marks repeat the call); inhibition, %; measured here: 10K subset replicate screen; many hits read low in the repeat;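 first of two repeat runs on a subset; 0% = infected and 100% = uninfected wells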
# * marks the source's active call; other numbers are inactive results; u = inconclusive; x = not tested or not shown.
SMILES,RecA splice inh,Mtb betalactam,YopH inh,Mtb H37Rv,Arbovirus anti,others
CC(OC(=O)Cc1coc2cc3c(cc12)CCC3)C(=O)NCc1ccc2c(c1)OCO2 (stereo not drawn),-0.7,43,5,11%,0,
CCCOc1cccc(C(=O)NC(=S)Nc2cccc(NC(=O)c3ccccc3Cl)c2)c1,-1.0,4,-26,8%,-6,
CCOC(=O)c1ccc(NC(=O)c2nc[nH]c2C(=O)N[C@H](C)c2ccccc2)cc1,-2.2,80,x,6.4µM*,x,
COc1cc(C(=O)Nc2ccc(C(=O)O)cc2)ccc1OC(C)=O,-0.3,2,x,2%,-4,
CCC(C)NC(=O)c1ccccc1SC (stereo not drawn),-2.8,6,x,9%,5,
Cc1ccccc1-n1c(SCC(=O)Nc2cccc3ccccc23)nc(O)cc1=O,5.1,10,x,x,x,
CC(=O)NC(NC(C)=O)c1ccc(Br)cc1,-1.0,x,2,3%,4,
CC1=CC(C2CC(=O)N(c3ccc(C)cc3)C2=O)CC2C(=O)N(c3ccc(C)cc3)C(=O)C12 (stereo not drawn),1.2,-1,x,-7%,7,
CCn1c(SCC(=O)Nc2cccc(OC)c2)nnc1-c1ccc(Cl)cc1,-2.5,-1,-6,-8%,6,
Cc1ccc(NC(=O)CN(C)C(=O)CCC(=O)c2cccs2)cc1,0.8,61,-9,1%,7,
O=[N+]([O-])c1cc(S(=O)(=O)C(F)(F)F)ccc1Sc1nc2ccccc2[nH]1,82*,94,-13,67%,-33,
CC(C)Cc1ccc(C(C)NC(=O)Cc2ccc(S(=O)(=O)N3CCOCC3)s2)cc1 (stereo not drawn),1.8,-5,x,x,x,

# Filtered by structure, the compounds so far with four or more nitrogen atoms.
SMILES,RecA splice inh,Mtb betalactam,YopH inh,Mtb H37Rv,Arbovirus anti,others
CCOC(=O)c1ccc(NC(=O)c2nc[nH]c2C(=O)N[C@H](C)c2ccccc2)cc1,-2.2,80,x,6.4µM*,x,
CCn1c(SCC(=O)Nc2cccc(OC)c2)nnc1-c1ccc(Cl)cc1,-2.5,-1,-6,-8%,6,

# The listing continues.
SMILES,RecA splice inh,Mtb betalactam,YopH inh,Mtb H37Rv,Arbovirus anti,others
Cc1ccc(NC(=O)COc2cccc(-n3cnnn3)c2)cc1[N+](=O)[O-],-0.4,-3,x,x,x,
COc1ccc(CN2C(=O)Cc3c2nc(N)c2c(N)nc(N4CCOCC4)c(C#N)c32)cc1,-45,4,x,-4%,x,
Cc1ccc(C)c(S(=O)(=O)N2CCCCC2CCNC(=O)C(=O)NCc2ccccn2)c1 (stereo not drawn),-0.1,1,x,x,x,
COc1ccc(C(=O)Nc2ccc(N3CCN(C(=O)c4cccs4)CC3)cc2)cc1Br,1.0,75,x,x,x,
Cc1ccccc1N1CC(C(=O)Nc2nnc(SCc3cccnc3)s2)CC1=O (stereo not drawn),1.9,-7,x,x,x,
CNC(=O)COC(=O)c1ccc(NS(=O)(=O)c2ccc3c(c2)OCCO3)cc1,-3.0,1,x,5%,4,
N#Cc1ccc(N2C(=O)[C@@H]3C(C(=O)C(c4ccccc4)c4ccccc4)=NN[C@@H]3C2=O)cc1,5.1,3,-15,-4%,17,
CSc1ccccc1-n1nnnc1SCC(=O)Nc1cc(C)ccc1C,2.0,-7,5,-1%,1,
Cc1cc(C(=O)NCc2cccnc2)n(-c2ccccc2)n1,-3.0,7,-8,1%,12,
COc1ccccc1OC(=O)C1CC(=O)N(c2ccc(Cl)cc2)C1 (stereo not drawn),6.4,48,-34,-8%,13,
Cc1ccc(-n2nnnc2SCC(=O)Nc2ccc3c(c2)COC3=O)cc1C,-1.9,-7,-53,1%,-17,
CC(=O)Nc1ccc(NC(=O)COC(=O)c2ccc(C)s2)cc1,-1.6,-6,-19,-1%,-6,
Cc1nn(Cc2ccc(Cl)cc2)c(C)c1NC(=O)c1noc2c1CCCCC2,0.1,7,-7,8%,6,
Cc1ccccc1C(=O)NCC(=O)Nc1ccccc1C(F)(F)F,-0.4,-2,x,-1%,2,
CCOC(=O)c1c(NC(=O)Cn2nnc3ccccc32)sc2c1CCC(C)C2 (stereo not drawn),8.9,-10,-5,11%,-25,
CC1CC1C(=O)NCCc1ccc(Cl)cc1 (stereo not drawn),-0.8,-6,35,-11%,-6,
COc1cccc(C(=O)N/N=C/c2ccc(OC)c(COc3ccccc3C(N)=O)c2)c1,3.5,4,x,x,x,
COCCNC(=O)CSc1nc(-c2ccccc2)c(-c2ccccc2)o1,-3.7,1,6,-6%,-9,
O=C(O)C1CSC2c3ccccc3C(=O)N12 (stereo not drawn),-2.7,3,-30,-1%,12,
N#CC1=C(N)N2C(=C(C#N)C13CCCCC3)SC1CCCCC12O (stereo not drawn),-3.1,12,-39,-3%,2,
COc1cc2c(cc1NC(=O)c1cc(-c3ccncc3)nc3ccccc13)oc1ccccc12,1.6,36,-15,17%,-24,
CCOc1cc(C2C(C#N)=C(N)Oc3cc(N)ccc32)ccc1O (stereo not drawn),-13,-1,x,x,x,
Fc1cccc(NC(=S)NNc2c3ccccc3nc3ccccc23)c1,-7.8,x,x,3%,-21,
Cn1c(=O)n(C)c2cc(/C=C3/NC(=O)N(Cc4ccccc4)C3=O)ccc21,-7.8,7,-15,-2%,-18,
CNC(=O)C(C)c1ncc(C(F)(F)F)cc1Cl (stereo not drawn),-1.4,-6,x,0%,2,
O=c1ccc(-c2ccc(S(=O)(=O)NCC3CCN(Cc4cccc(F)c4)CC3)s2)n[nH]1,-113,2,x,x,x,
COc1ccc(N(C(=O)CNC(=O)c2ccco2)C(C(=O)NC2CCCCC2)c2ccco2)cc1 (stereo not drawn),2.5,-3,5,7%,7,
COc1ccc(N2C(=O)NC(=O)/C(=C\c3cn(CC(=O)N4CCOCC4)c4ccccc34)C2=O)c(OC)c1,-0.3,u,x,x,x,
Cc1ccc(NC(=O)c2ccc(S(=O)(=O)N3CCC(C)CC3)cc2)nc1,0.2,-14,x,x,x,
c1ccc(CSc2ccc(-c3ccccn3)nn2)nc1,-1.6,-7,x,-4%,-36,
O=C(Cc1cccs1)Nc1nc(-c2ccc(F)c(F)c2)cs1,5.1,9,x,x,x,
Cc1ccc(S(=O)(=O)N2CCCC2)cc1[N+](=O)[O-],-5.2,-7,-23,-9%,-3,
FC(F)(F)c1cccc(N2CCN(C(=S)NCC3CCCO3)CC2)c1 (stereo not drawn),2.9,0,x,-5%,-2,
COc1ccc(S(=O)(=O)NC(CC(=O)NCc2ccco2)C(C)C)cc1 (stereo not drawn),3.1,0,-56,9%,-1,
O=C(NCCc1c[nH]c2ccccc12)/C(=C\c1cccnc1)NC(=O)c1ccccc1F,-4.5,-5,x,-9%,x,
C=CCN1C(=O)c2ccc(C(=O)N(C)CC(=O)Nc3ccccc3Br)cc2C1=O,0.8,-10,x,x,x,

# The last 3 compounds of the section before come first, to join the parts:
SMILES,RecA splice inh,Mtb betalactam,YopH inh,Mtb H37Rv,Arbovirus anti,others
COc1ccc(S(=O)(=O)NC(CC(=O)NCc2ccco2)C(C)C)cc1 (stereo not drawn),3.1,0,-56,9%,-1,
O=C(NCCc1c[nH]c2ccccc12)/C(=C\c1cccnc1)NC(=O)c1ccccc1F,-4.5,-5,x,-9%,x,
C=CCN1C(=O)c2ccc(C(=O)N(C)CC(=O)Nc3ccccc3Br)cc2C1=O,0.8,-10,x,x,x,
Cc1cc(=O)[nH]c(SCC(=O)N(CCC#N)c2ccccc2)c1C#N,-2.3,-6,x,-4%,1,
O=C(C1CCC(=O)N1C1CCCCC1)N1CCN(c2ccc(F)cc2)CC1 (stereo not drawn),-1.8,3,-40,-13%,-6,
CSc1ccc(CNCCCSc2ncccn2)cc1,0.5,2,x,x,x,
Cc1ccc(N(CC(=O)O)S(C)(=O)=O)cc1Cl,-0.1,-13,-5,-6%,1,
Cc1ccc(C(CNS(=O)(=O)c2ccc(F)cc2)N2CCN(C)CC2)cc1 (stereo not drawn),-0.2,-5,x,x,x,
N#CN(CC(N)=O)c1nc(N2CCCCC2)nc(N2CCCCC2)n1,-4.1,5,-1,-3%,-10,
CCCn1c(N)c(N(CCOC)C(=O)c2ccccc2F)c(=O)[nH]c1=O,-0.8,6,x,x,x,
Cc1nc(SCC(=O)Nc2ccc(F)cc2)c(C#N)c(C)c1CC(=O)c1ccc(Br)cc1,-1.9,82,-14,x,-33,
CCn1c(C)nc2cc(C(=O)NNC(=O)CCC3CCCC3)ccc21,1.1,-2,-21,-11%,-9,
NC(=O)C1CCN(CC(=O)c2c[nH]c3ccc(F)cc23)CC1,0.5,-14,-31,-4%,5,
CCOC(=O)C1CCCN(C(=O)CC(C)c2ccccc2)C1 (stereo not drawn),-0.2,-6,-31,-1%,4,Arbovirus anti repeat=1
Cc1ccc(-c2n[nH]c(=O)c3ccccc23)cc1S(=O)(=O)Nc1ccc(F)cc1,-0.7,-4,x,-4%,x,
CCOC(=O)c1ccccc1NC(=O)c1ccc2nc[nH]c2c1,0.7,64,x,x,x,
O=C(NCCc1cccs1)c1ccc(Cl)c(Cl)c1,2.8,1,x,6%,-2,
O=C(/C=C/c1ccccc1)NC(=O)c1ccccc1O,1.9,1,x,-11%,x,
Cn1c(C(C#N)C(=O)Cc2cccc3ccccc23)nc2ccccc21 (stereo not drawn),-1.3,17,-43,-16%,1,Arbovirus anti repeat=-2
COc1cccc(Nc2nc3ccccc3nc2NS(=O)(=O)c2cccs2)c1,-12,-11,-32,1%,-2,
CCNC(=O)COC(=O)COc1ccc(Cl)cc1C,2.2,-18,-50,-8%,3,
Cn1nc(C(F)(F)F)c(C(=O)Nc2ccc(F)cc2)c1Cl,0.5,-7,x,5%,-2,
COc1cc2c(cc1OC)C(c1cccc(Br)c1)NC(=O)C2 (stereo not drawn),0.1,-4,x,x,x,
CCC(C(=O)NCCN1CCOCC1)n1c2ccccc2c2nc(=O)cc(C)n21 (stereo not drawn),-3.6,5,x,x,x,
CC1=NN(C(N)=S)C(=O)C1N=Nc1c(C)n(C)n(-c2ccccc2)c1=O (stereo not drawn),13,-1,x,x,x,
O=C(c1ccc(-c2ccccc2)cc1)C1CCCN(C(=O)Cn2cncn2)C1 (stereo not drawn),2.7,-2,x,3%,1,
COc1ccc(S(=O)(=O)N2CCc3ccccc32)cc1C(=O)N(CC(C)C)C1CCS(=O)(=O)C1 (stereo not drawn),0.1,-15,x,x,x,
COc1cc(/C=C2\SC(=S)N(CCC(=O)Nc3ccccc3O)C2=O)cc(OC)c1OC,6.1,2,x,x,x,
O=C(Nc1ccccn1)c1cccc(S(=O)(=O)N2CCc3ccccc3C2)c1,-0.4,-7,x,x,x,
O=C(COc1cc2oc(=O)c3c(c2cc1Cl)CCC3)N1C[C@H]2C[C@@H](C1)c1cccc(=O)n1C2,8.0,7,x,x,x,
CCOc1ncccc1C(=O)Nc1c(C)n(C)n(-c2ccccc2)c1=O,0.0,-2,x,x,x,
CCOC(=O)c1c(C)oc2ccc(OCC(N)=O)cc12,-0.1,-4,8,9%,-5,
COc1cc(C(=O)OCC(=O)Nc2ccc(C(C)=O)cc2)ccc1OCC(=O)N1CCOCC1,0.1,-2,-26,1%,3,
OCCNc1nc(Cl)nc(NCc2ccco2)n1,3.4,1,x,-7%,10,
O=[N+]([O-])c1cccc2cn[nH]c12,8.1,0,-34,-5%,-1,
Cc1cc2c(cc1C)CSC(c1ccccc1O)SC2,5.2,42,-8,2%,-44,
COc1cc(Br)c(/C=C/c2ccc3cccc(O)c3n2)cc1OC,2.1,50,x,x,x,
Cc1cc(/C=N/NC(=O)c2cccc(N(C)C)c2)c(C)n1-c1cc(C(=O)O)cc(C(=O)O)c1,3.2,x,x,2%,-4,
CCCCc1ccc(NC(=O)c2cnccn2)cc1,2.2,80,x,52µM*,-24,
CCOC(=O)N1CCN(C(=O)C2CCCN(c3ncnc4c3nc3n4CCCCC3)C2)CC1 (stereo not drawn),1.9,1,x,x,x,
COc1ccc(CN2CCNC(=O)C2CC(=O)N(C)Cc2ccon2)cc1OC (stereo not drawn),-0.7,3,x,1%,-2,
O=C(OCCN1C(=O)c2ccccc2C1=O)c1ccccc1,-6.7,-2,x,x,8,
C=CCn1ncc(OC)c(Cl)c1=O,-1.6,-7,-22,5%,0,
CN1C(=O)C(c2ccccc2)C(=O)N(C)C1=O,1.1,0,x,x,x,
COc1ccc(NC(=O)CCC(=O)Nc2ccc3nc(N4CCOCC4)cc(C)c3c2)c(OC)c1,1.2,3,x,x,x,
O=C(O)c1ccc(S(=O)(=O)NCC2CCCCC2)cc1,-1.9,3,x,x,x,
Cc1nn(CC(=O)N2CCN(C)CC2)c(=O)c2c1sc1ccccc12,1.8,1,x,x,x,
COc1ccc2[nH]c3c(c2c1)CN(C)CC3,3.5,2,-30,-9%,15,
C=CCCC(=O)N(C)CCO,3.1,-9,x,x,x,

# The list is partial; the hit share may differ from the screen's.
